High-throughput results deposited in PubChem by several laboratories.
FGF22 binding: binders of recombinant human FGF22 by thermal shift. Q9HCT0. calls only at 9.99 µM. SYPRO orange fluorescence; percent of sucrose octasulfate shift, DMSO zero. hit rate 1.5% among 340,000;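 active means melting point raised past a set limit in the mean and every replicate; inconclusive means no clear call; three in four hits are not shown here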
Target sequence (Q9HCT0 whole entry, looked up): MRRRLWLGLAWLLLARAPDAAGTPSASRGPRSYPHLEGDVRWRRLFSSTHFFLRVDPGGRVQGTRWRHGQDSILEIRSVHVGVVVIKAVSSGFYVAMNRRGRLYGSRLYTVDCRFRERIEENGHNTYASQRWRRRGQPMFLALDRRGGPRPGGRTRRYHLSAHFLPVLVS
UCH37 DUB inh: inhibitors of human deubiquitinating enzyme UCH37. Q9Y5K5. purified proteasome/UCH37, Ub-AMC cleavage fluorescence. inhibition, % (test concentration not listed). hit rate 0.33% among 330,000;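 active means mean of two replicates above 20%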;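 further: 0% = compound-free wells with enzyme and 100% = wells lacking proteasome; stock transfer was 100 nL into about 20 µL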
Target sequence (Q9Y5K5 whole entry, looked up): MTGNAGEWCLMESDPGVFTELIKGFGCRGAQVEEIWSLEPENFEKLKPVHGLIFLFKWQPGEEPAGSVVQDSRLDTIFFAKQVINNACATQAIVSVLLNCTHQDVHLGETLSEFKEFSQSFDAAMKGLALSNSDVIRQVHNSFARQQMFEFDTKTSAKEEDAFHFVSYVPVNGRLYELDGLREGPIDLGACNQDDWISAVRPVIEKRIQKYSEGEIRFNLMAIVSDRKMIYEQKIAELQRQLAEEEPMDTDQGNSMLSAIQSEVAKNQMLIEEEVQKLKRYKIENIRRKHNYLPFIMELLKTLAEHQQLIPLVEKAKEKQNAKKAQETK
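System: Proteasome-associated human UCH37 deubiquitinase; Input: 0.15 nM proteasome in added enzyme buffer; Also added: Ub-AMC substrate from 1 µM stock; Incubation: 30 min compound-proteasome preincubation then 25 min substrate reaction, room temperature; Detection: fluorescence, ex 355 nm, em 460 nm; Read-out: % inhibition of Ub-AMC cleavage fluorescence; Benchmarks: no-proteasome and no-compound wells.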
RanGTP-Impb inh: inhibitors of RanGTP-importin-beta interaction, primary screen, biochemical, FRET, CFP-Ran, YFP-importin-beta, homogeneous | cell-free CFP-Ran/YFP-importin-beta FRET ratio | inhibition, % (concentration not given with the values) | hit rate 1.1% among 300,000 | AID 2216;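 active means most replicates above 15%; inconclusive means exactly half above 15%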;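 further: 0% = DMSO wells and 100% = Ran loaded with GDP instead of GTP; wells of about 40 µL received 100 nL stock; the first replicate is given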
E coli growth: inhibitors of Escherichia coli growth; OD600, 23 h; stronger effect = lower value; OD600 absorbance (no concentration beside the values); hit rate 0.21% among 330,000;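 active means OD600 absorbance below the run mean of sample wells minus 3.6 SD, in any replicate, cut at about 0.56 in these data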;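 further: stock transfer was 300 nL into about 60 µL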
Vif TR-FRET: inhibitors of Vif binding to APOBEC3G peptide, primary screen, biochemical, TR-FRET, GST-Vif 1-94, biotin-A3G peptide, dose response retest (AID 1117319); hit rate 0.57% among 260,000; one-dose inhibition, %; IC50 in µM for titrated hits; TR-FRET GST-Vif / biotin-A3G peptide binding; higher % means a stronger effect; test concentration not given here; strong numbers were not always called active;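 active means above the screen mean plus three standard deviations and confirmed in dose response; inconclusive means results disagree or hit not tested in dose response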;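 further: Vif residues 1-94 fused to GST binding biotinylated APOBEC3G peptide 110-148; 0% = full assay without inhibitor and 100% = GST in place of GST-Vif; retest series ran down from 100 µM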
AF4-AF9 inh: inhibitors of human MLL-AF4/AF9 interaction | P42568 | AlphaScreen, biotin-AF4 peptide binding to FLAG-AF9 | inhibition, % at 10 µM | hit rate 0.47% among 350,000 | AID 651704;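 active means every replicate reaching a set inhibition limit, whatever the replicate mean, cut at about 25% in these data; inconclusive means mean inhibition reaches that limit but some replicates miss it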;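 further: 0% = plate neutral control median and 100% = total signal loss; the record names both 10 and 1 µM as test concentration; the first replicate is given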
HNF4A DNA FP: change in binding of human HNF4 alpha to DNA; hit rate 0.3% among 360,000; AID 1224865; HNF4a-FITC DNA binding, fluorescence polarization, 1 h; activity change, % at 10 µM; P41235; in the data active means activity change above about 30%, passing the limit was not always enough;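 further: controls were the assay level and a saturating level of protein; the project sought stronger binding though the title names inhibitors; some compounds called inactive have numbers as strong as hits; positive values seem to mean higher polarization but the record does not say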
Target sequence (P41235 whole entry, looked up): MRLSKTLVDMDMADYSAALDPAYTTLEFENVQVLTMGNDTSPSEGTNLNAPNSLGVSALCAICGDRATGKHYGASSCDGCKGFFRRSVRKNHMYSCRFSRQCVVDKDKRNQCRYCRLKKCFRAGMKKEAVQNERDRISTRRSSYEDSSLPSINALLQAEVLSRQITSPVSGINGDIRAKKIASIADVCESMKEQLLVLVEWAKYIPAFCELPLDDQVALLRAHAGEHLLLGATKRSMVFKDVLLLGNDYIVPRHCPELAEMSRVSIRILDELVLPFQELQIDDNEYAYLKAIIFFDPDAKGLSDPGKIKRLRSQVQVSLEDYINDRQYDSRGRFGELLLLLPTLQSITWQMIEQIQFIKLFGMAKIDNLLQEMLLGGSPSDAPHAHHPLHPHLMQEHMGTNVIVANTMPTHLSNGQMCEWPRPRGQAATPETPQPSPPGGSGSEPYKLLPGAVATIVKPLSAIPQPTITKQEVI
* = called active by the depositor.

`COc1ccc(CNC(=O)C(NC(C)=O)C(=O)Nc2ccc(C(C)C)cc2)cc1` (stereo unspecified) gave FGF22 binding inactive, UCH37 DUB inh 3.1, RanGTP-Impb inh -1.3, E coli growth 0.721, Vif TR-FRET -2.6%, AF4-AF9 inh -2.9 and HNF4A DNA FP -1.3.
For C/C(=N/NC(=O)Cc1c(C)[nH][nH]c1=O)c1ccc(O)cc1 the results were FGF22 binding inactive, RanGTP-Impb inh 3.9, AF4-AF9 inh -0.2 and HNF4A DNA FP -2.8.
`Cc1ccc(Cl)cc1N(CC(=O)N1CCCCCC1)S(C)(=O)=O` gave UCH37 DUB inh 3.8, RanGTP-Impb inh 1.2, E coli growth 0.711, Vif TR-FRET 3.5% and HNF4A DNA FP 5.1.
`COc1ccc(-c2nnc3ccc(SCC(=O)NCc4ccco4)nn23)cc1OC` gave UCH37 DUB inh 5.8, RanGTP-Impb inh 10.6, E coli growth 0.632, Vif TR-FRET -5.1% and HNF4A DNA FP 1.1.
Screening CN(C)C=NC(=O)c1cc(C(=O)c2ccccc2)c[nH]1 returned FGF22 binding inactive, UCH37 DUB inh 5.4, RanGTP-Impb inh -2.4, E coli growth 0.647, Vif TR-FRET 3.4%, AF4-AF9 inh -1.2 and HNF4A DNA FP 0.5.
Screening CCOc1ccc(CCNC(=O)c2cnc(C)cn2)cc1OCC returned FGF22 binding inactive, UCH37 DUB inh 6.3, RanGTP-Impb inh -0.1, E coli growth 0.732, AF4-AF9 inh -0.4 and HNF4A DNA FP 1.8.
`COc1ccc(CCn2c(=N)c(S(=O)(=O)c3ccccc3)cc3c(=O)n4ccccc4nc32)cc1` gave FGF22 binding inactive, UCH37 DUB inh -8.0, RanGTP-Impb inh -0.9, E coli growth 0.7, AF4-AF9 inh -2.7 and HNF4A DNA FP 5.7.
For CC(=O)N=C1SC2CS(=O)(=O)CC2N1c1ccccc1Cl (stereo unspecified) the results were UCH37 DUB inh 2.5, RanGTP-Impb inh 2.9, E coli growth 0.769, Vif TR-FRET 18.9% and HNF4A DNA FP 1.5.
Screening CC(C)(C)c1[nH]nc2c1C(c1cccnc1)C(C#N)=C(N)O2 (stereo unspecified) returned FGF22 binding inactive, UCH37 DUB inh 3.0, RanGTP-Impb inh -0.1, E coli growth 0.653, Vif TR-FRET 2.6%, AF4-AF9 inh -41.6 and HNF4A DNA FP -0.5.
Screening COc1cc(C=CC(=O)N2CCN(CC(=O)N3CCCC3)CC2)cc(OC)c1OC returned FGF22 binding inactive, Vif TR-FRET 1.6%, AF4-AF9 inh 0.1 and HNF4A DNA FP -3.5.
For O=C(CC1C(=O)NCCN1CC1CCCCC1)NCCCN1CCOCC1 (stereo unspecified) the results were FGF22 binding inactive, UCH37 DUB inh -4.1, RanGTP-Impb inh -1.3, E coli growth 0.726, AF4-AF9 inh 1.1 and HNF4A DNA FP -2.3.
COc1ccc(CNC(=O)C2CC(c3ccccc3C(F)(F)F)=NO2)cc1 (stereo unspecified) was read as FGF22 binding inactive, UCH37 DUB inh 1.6, RanGTP-Impb inh -3.7, E coli growth 0.716, Vif TR-FRET -0.1% and HNF4A DNA FP 0.5.
CC(C)C(=O)Nc1cccc(NC(=S)NC(=O)c2ccc3c(c2)OCO3)c1 was read as FGF22 binding inactive, UCH37 DUB inh 5.3, RanGTP-Impb inh -2.0, E coli growth 0.726, AF4-AF9 inh -5.5 and HNF4A DNA FP 2.1.
Cc1snc2sc(C(=O)c3ccc(F)cc3)c(N)c12 was read as FGF22 binding inactive, UCH37 DUB inh 4.2, RanGTP-Impb inh -5.2, E coli growth 0.671, Vif TR-FRET 3.2%, AF4-AF9 inh -11.5 and HNF4A DNA FP 0.5.
N#Cc1ccc(OCC(=O)NCCCN2CCCC2=O)cc1 was read as FGF22 binding inactive, Vif TR-FRET -1.5%, AF4-AF9 inh 2.8 and HNF4A DNA FP 2.8.
Screening COc1cc(NC(=O)COC(=O)/C=C/c2ccc(OC)c(OC)c2)cc(OC)c1 returned FGF22 binding inactive, UCH37 DUB inh -12.7, RanGTP-Impb inh -1.8, E coli growth 0.673, Vif TR-FRET -8.1%, AF4-AF9 inh 0.6 and HNF4A DNA FP -1.0.
Screening CC(=O)c1c(C(C)=O)c(C)n(C2CCCCC2)c1C returned UCH37 DUB inh 0.5, RanGTP-Impb inh 9.3, E coli growth 0.761, Vif TR-FRET -7.9% and HNF4A DNA FP 0.9.
Screening CSc1ccccc1C(=O)NC1CCSc2ccccc21 (stereo unspecified) returned FGF22 binding inactive, UCH37 DUB inh 2.4, RanGTP-Impb inh -0.1, E coli growth 0.653, AF4-AF9 inh -0.8 and HNF4A DNA FP 0.7.
`Nc1cccc2c(O)cc(S(=O)(=O)O)cc12` gave UCH37 DUB inh -291.8, E coli growth 0.672, Vif TR-FRET 2µM* and HNF4A DNA FP -67.0.
`CC1(c2ccccc2)NC(=O)N(CCOc2ccccc2)C1=O` (stereo unspecified) gave UCH37 DUB inh 4.2, RanGTP-Impb inh 0.2, E coli growth 0.683, Vif TR-FRET -2.7% and HNF4A DNA FP 1.0.
Screening COc1ccccc1NS(=O)(=O)c1cc(NC(=O)CN2C(=O)NC3(CCCCC3)C2=O)ccc1C returned FGF22 binding inactive, UCH37 DUB inh 2.4, E coli growth 0.695, AF4-AF9 inh -1.1 and HNF4A DNA FP -5.2.
`C=CCNC(=S)Nc1cccc(NC(=S)NCC=C)c1` gave FGF22 binding inactive, UCH37 DUB inh 1.5, RanGTP-Impb inh -1.0, E coli growth 0.661, Vif TR-FRET -4.2%, AF4-AF9 inh 2.0 and HNF4A DNA FP 2.7.
`COCCNC(=O)c1c(NC(=O)c2nc(SC)ncc2Cl)sc2c1CCCC2` gave FGF22 binding inactive, UCH37 DUB inh 3.2, RanGTP-Impb inh -4.0, E coli growth 0.644, Vif TR-FRET 2.7%, AF4-AF9 inh 2.9 and HNF4A DNA FP 30.4.
Screening O=C(CNC(=O)C1CCCCC1)NC1CCCCC1 returned FGF22 binding inactive, UCH37 DUB inh 5.6, RanGTP-Impb inh 1.2, E coli growth 0.636, Vif TR-FRET -2.5%, AF4-AF9 inh -0.3 and HNF4A DNA FP -0.9.

Compounds shown so far with a thiophene ring, fused or not, in the order listed:
Cc1snc2sc(C(=O)c3ccc(F)cc3)c(N)c12 was read as FGF22 binding inactive, UCH37 DUB inh 4.2, RanGTP-Impb inh -5.2, E coli growth 0.671, Vif TR-FRET 3.2%, AF4-AF9 inh -11.5 and HNF4A DNA FP 0.5.
`COCCNC(=O)c1c(NC(=O)c2nc(SC)ncc2Cl)sc2c1CCCC2` gave FGF22 binding inactive, UCH37 DUB inh 3.2, RanGTP-Impb inh -4.0, E coli growth 0.644, Vif TR-FRET 2.7%, AF4-AF9 inh 2.9 and HNF4A DNA FP 30.4.

New compounds follow:
Screening Cc1ccc(C2=CSC3=NS(=O)(=O)CCN23)cc1C returned UCH37 DUB inh 3.4, RanGTP-Impb inh 4.0, E coli growth 0.739, Vif TR-FRET 24.0% and HNF4A DNA FP 2.1.
For Cc1cccn2cc(CCNS(=O)(=O)c3ccc4c(c3)OCCO4)nc12 the results were FGF22 binding inactive, UCH37 DUB inh 4.5, RanGTP-Impb inh 0.9, E coli growth 0.79, Vif TR-FRET -1.5%, AF4-AF9 inh -7.3 and HNF4A DNA FP 2.9.
Screening Cc1ccc(C(CC(=O)c2ccc(Cl)cc2)C(=O)O)cc1 (stereo unspecified) returned FGF22 binding inactive, UCH37 DUB inh 0.3, RanGTP-Impb inh 4.0, E coli growth 0.686, Vif TR-FRET -5.5%, AF4-AF9 inh -8.5 and HNF4A DNA FP -0.6.
Screening Cc1ccc(S(=O)(=O)c2nc(-c3ccc(F)cc3)oc2N2CCOCC2)cc1 returned FGF22 binding inactive, UCH37 DUB inh 2.6, RanGTP-Impb inh -3.0, E coli growth 0.634, Vif TR-FRET 2.7%, AF4-AF9 inh 1.4 and HNF4A DNA FP 28.1.
For O=C(NC1CCCCC1)c1nc2c(nnn2Cc2ccccc2Cl)c(=O)[nH]1 the results were UCH37 DUB inh 0.3, RanGTP-Impb inh 3.9, E coli growth 0.667, Vif TR-FRET inconclusive and HNF4A DNA FP 0.1.
`O=c1cccccc1NN=C1CCCCC1` gave FGF22 binding inactive, UCH37 DUB inh 1.6, RanGTP-Impb inh -1.8, E coli growth 0.706, Vif TR-FRET 1.3%, AF4-AF9 inh 3.1 and HNF4A DNA FP -2.4.
`O=[N+]([O-])c1c(Nc2ccccc2O)cc(N2CCOCC2)c2nonc12` gave FGF22 binding inactive, UCH37 DUB inh 11.7, RanGTP-Impb inh 1.0, E coli growth 0.682, Vif TR-FRET 10.7%, AF4-AF9 inh -15.9 and HNF4A DNA FP -4.3.
`Cc1cccc(C(=O)N2CCN(c3ccc([N+](=O)[O-])c(NCc4ccco4)c3)CC2)c1` gave UCH37 DUB inh 4.4, RanGTP-Impb inh 2.5, E coli growth 0.731, Vif TR-FRET -0.9% and HNF4A DNA FP -0.9.
O=C(Nc1cccc(Cl)c1)c1nc[nH]c1C(=O)NCCCNC(=O)c1[nH]cnc1C(=O)Nc1cccc(Cl)c1 was read as FGF22 binding inactive, AF4-AF9 inh 4.7 and HNF4A DNA FP 4.9.
COC(=O)c1ccc(CSc2nc3cc(Cl)ccc3o2)cc1 was read as UCH37 DUB inh 2.0, RanGTP-Impb inh 0.4, E coli growth 0.677, Vif TR-FRET 4.6% and HNF4A DNA FP -1.6.
`CC12CCCCC1C(C(N)=O)C(=O)O2` (stereo unspecified) gave FGF22 binding inactive, Vif TR-FRET 9.0%, AF4-AF9 inh -1.2 and HNF4A DNA FP 0.1.
`Cn1c(=O)c2cc(NC(=O)NCCc3ccccc3)ccc2n1Cc1cccc(C(F)(F)F)c1` gave FGF22 binding inactive, AF4-AF9 inh -3.1 and HNF4A DNA FP 2.2.
`CC1CCCC(NC(=O)CCCn2c(=S)[nH]c3ccccc3c2=O)C1C` (stereo unspecified) gave FGF22 binding inactive, UCH37 DUB inh 1.1, RanGTP-Impb inh -2.2, E coli growth 0.698, Vif TR-FRET -7.5%, AF4-AF9 inh -0.1 and HNF4A DNA FP 8.8.
COC(=O)c1ccc2nc(-c3cccc(Cl)c3)c(Cc3ccccc3OC)n2c1 was read as AF4-AF9 inh -0.6 and HNF4A DNA FP 10.0.
`CCCNC(=O)CCn1nc(-c2ccccc2)c2ccccc2c1=O` gave UCH37 DUB inh 1.0, RanGTP-Impb inh -3.2, E coli growth 0.712, Vif TR-FRET 1.6% and HNF4A DNA FP -2.4.
`CN(C(=O)CSc1nc2ccc(Cl)cc2[nH]1)C1CCS(=O)(=O)C1` (stereo unspecified) gave FGF22 binding inactive, UCH37 DUB inh 4.1, E coli growth 0.666, AF4-AF9 inh 2.7 and HNF4A DNA FP 4.2.
For O=C(CN1C(=O)COc2ccc(S(=O)(=O)N3CCOCC3)cc21)Nc1cccc(Cl)c1 the results were FGF22 binding inactive, UCH37 DUB inh 0.0, RanGTP-Impb inh 1.8, E coli growth 0.714, AF4-AF9 inh -1.7 and HNF4A DNA FP 3.0.
For O=C1CCC2(CCCC2)c2ccccc21 the results were FGF22 binding inactive, Vif TR-FRET 0.2%, AF4-AF9 inh 2.8 and HNF4A DNA FP -3.9.
`COC(=O)c1cc2ccsc2n1CC(=O)NCC1CCCO1` (stereo unspecified) gave FGF22 binding inactive, UCH37 DUB inh -1.4, RanGTP-Impb inh -1.4, E coli growth 0.68, Vif TR-FRET -4.5%, AF4-AF9 inh -30.1 and HNF4A DNA FP -0.8.
`CCc1cc2c(NC(Cc3ccccc3)C(=O)O)ncnc2s1` (stereo unspecified) gave FGF22 binding inactive, UCH37 DUB inh 2.4, RanGTP-Impb inh 1.3, E coli growth 0.692, AF4-AF9 inh -1.4 and HNF4A DNA FP 0.1.

An excerpt; the hit share may differ from the screen's.
